Compound activity (PubChem)
gsp antagonist = gsp mutant antagonism; gsp-mutant cells, cAMP HTRF, 30 min; control for the full effect not named in the record; Potency, µM (titrated, usually from 76.9 µM), without a hit: at the highest dose activity change, negative = inhibition, most hits filed as inhibitors; 340,000 tested, 0.4% active; AID 624288; active = falling curve of any shape with a large fitted effect; inconclusive = falling curve, mostly with a smaller effect; inactive = flat or rising curve; cell line not stated here;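 further: intracellular cAMP measured with PDE inhibitor Ro 20-1724 present during compound exposure; potency means the concentration at half of the fitted maximal effect; on the % scale 0 is the no-effect control and ±100 the full control effect; nearly all actives have a fitted effect of over 65% in size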
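G418-selected cells were plated in DMEM/10% FBS for 16-24 h at 37C, then treated with compounds plus the PDE inhibitor […] (300 uM solution added) for 30 min at 37C. Intracellular cAMP was measured by HTRF after 30 min lysis at room temperature.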
Sfp PPTase inh = inhibitors of Bacillus subtilis Sfp phosphopantetheinyl transferase | Biochemical Sfp PPTase activity, qHTS | Potency, µM, for inactives: max response, negative = inhibition, hits mostly inhibitors | 310,000 tested, 3.5% active | AID 1490; active means well fitted inhibition curve with a large enough effect; inconclusive means small, poorly fitted or top-dose-only effect, or another doubt; inactive means no such curve, though single readings can be large or run the other way;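 further: the enzyme is Sfp with the accession as filed and its product quenches rhodamine fluorescence; potency means the concentration at half of the fitted maximal effect; 0% = enzyme reaction without inhibitor and -100% = no enzyme wells; top concentration of the series not given in the record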
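Buffer: 50 mM Hepes-Na pH 7.6, 10 mM MgCl2, 0.01% Nonidet P-40, 0.01% BSA. Enzyme 15 nM, pre-exposed to compound 15 min; substrates then added and fluorescence change tracked over 30 min.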
Menin-MLL FL inh = menin-MLL binding inhibition, fluorescein peptide; Fluorescence polarization, fluorescein-MLL peptide displacement from menin; FP activity change, % at 61.4 µM; 290,000 tested, under 10 active; AID 1766; inconclusive = falling polarisation curve, or a change in total fluorescence; inactive = total fluorescence flat and polarisation flat or rising; no compound was filed as active; the % refers to the polarisation; negative = inhibition;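 further: % of control where 0% means no effect; inhibitors lower the polarisation; unlabelled MLL peptide was the positive control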
gsp ag = activates gsp, the McCune-Albright syndrome mutation; 340,000 tested, 0.13% active; Potency, µM (highest dose often 76.9 µM), for the others: at the highest dose activation (cAMP increase), actives largely listed as activators; gsp mutant cells, cAMP HTRF, 30 min; control for the full effect not named in the record; active = well fitted activation curve with a large enough effect; inconclusive = small, poorly fitted or top-dose-only effect, or another doubt; inactive = no such curve, though single readings can be large or run the other way; cell line not stated here;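 further: phosphodiesterase inhibitor Ro 20-1724 added with compounds to block cAMP breakdown; potency means the concentration at half of the fitted maximal effect; nearly all actives have a fitted effect of over 60% in size; about a fifth of the inactives were tested at one dose only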
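Cells in DMEM/10% FBS with G418 were pretreated with compounds in DMSO plus […] (300 uM stock) for 30 min at 37C. cAMP was measured by HTRF (cAMP-d2 plus anti-cAMP antibody-K) after 30 min at room temperature.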
ClpP mod = qHTS Assay for Activators of ClpP | ATP-dependent Clp protease proteolytic subunit (Bacillus subtilis (strain 168)), P80244 | purified B. subtilis ClpP, FRET peptide cleavage, 20 min | Potency, µM (highest dose often 57.5 µM), for the others: top-dose activity change, negative = active | 340,000 tested, 1.9% active; active = well fitted falling curve with a large enough effect; inconclusive = small, poorly fitted or top-dose-only effect; inactive = no such curve, though single readings can be large or run the other way; further: potency means the concentration at half of the fitted maximal effect; the source files actives as falling curves though it sought activators and does not explain the sign; nearly all actives have a fitted effect of over 65% in size; many hits overshoot -100%
Target sequence (P80244 whole entry, looked up): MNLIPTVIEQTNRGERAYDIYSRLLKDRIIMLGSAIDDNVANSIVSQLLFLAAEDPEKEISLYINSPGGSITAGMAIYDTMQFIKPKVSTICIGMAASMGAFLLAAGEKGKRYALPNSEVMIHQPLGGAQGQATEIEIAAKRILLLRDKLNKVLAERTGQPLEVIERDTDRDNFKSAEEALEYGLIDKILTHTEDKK
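Buffer: 100 mM Tris/HCl pH8, 100 mM KCl, 0.05% low protease BSA, 2.5% glycerol, 0.01% Tween-20. ClpP 10 microg/mL final; 20 min RT; delta FRET normalized to ADEP and DMSO controls.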
D2 potentiator = potentiates the human D2 dopamine receptor allosterically | potentiation, % (test concentration not listed) | DiscoveRx D2 beta-arrestin cells, luminescence, 90 min; 100% = 57 uM dopamine signal | 360,000 tested, 0.23% active; active = potentiation of 50% or more; inconclusive = 30% to 50%; inactive = 30% or less;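 further: compound concentration not given in the record; tested on top of an EC20 dose of dopamine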
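D2 cells co-treated with compound plus 50 nM dopamine (EC20) for 90 min at 37 deg C to detect potentiation. Beta-arrestin recruitment was read as enzyme-fragment luminescence after 1 h at ambient temperature. Full response was set by 57 uM dopamine.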
TRPV1 PAM = potentiators of human vanilloid receptor 1 (TRPV1) | 320,000 tested, 0.02% active | TRPV1-expressing cells, Fluo-8 calcium influx, capsaicin EC20 potentiation; host cell line not named in the record; control for the full effect not named in the record | potentiation, % at 8.33 µM | Q8NER1; active means potentiation above 80%; inconclusive means 30% to 80%; inactive means below 30%; further: 0% is about no effect
Target sequence (Q8NER1 whole entry, looked up): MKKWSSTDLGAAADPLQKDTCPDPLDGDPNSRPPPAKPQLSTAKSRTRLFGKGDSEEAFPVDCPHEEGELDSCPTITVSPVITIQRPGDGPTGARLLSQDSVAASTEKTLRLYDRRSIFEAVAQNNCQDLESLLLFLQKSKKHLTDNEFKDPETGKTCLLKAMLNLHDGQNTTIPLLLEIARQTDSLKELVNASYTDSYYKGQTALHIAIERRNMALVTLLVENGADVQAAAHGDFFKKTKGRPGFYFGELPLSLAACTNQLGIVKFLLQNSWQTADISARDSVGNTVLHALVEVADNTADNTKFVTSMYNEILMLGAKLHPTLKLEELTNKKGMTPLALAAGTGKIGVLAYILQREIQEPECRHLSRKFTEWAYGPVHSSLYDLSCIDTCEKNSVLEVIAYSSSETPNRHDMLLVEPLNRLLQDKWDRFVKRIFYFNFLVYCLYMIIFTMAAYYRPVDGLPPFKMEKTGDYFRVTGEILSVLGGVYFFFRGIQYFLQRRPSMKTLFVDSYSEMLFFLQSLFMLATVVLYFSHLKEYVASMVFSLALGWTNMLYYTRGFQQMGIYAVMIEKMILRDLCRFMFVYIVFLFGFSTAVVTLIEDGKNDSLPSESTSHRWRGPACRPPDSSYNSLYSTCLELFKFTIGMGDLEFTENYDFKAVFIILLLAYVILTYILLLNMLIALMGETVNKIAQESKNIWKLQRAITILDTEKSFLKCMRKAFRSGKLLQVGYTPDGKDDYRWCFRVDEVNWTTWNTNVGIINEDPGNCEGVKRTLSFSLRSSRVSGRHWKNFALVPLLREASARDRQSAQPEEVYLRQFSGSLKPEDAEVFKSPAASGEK
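Cells expressing TRPV1 were dye-loaded with Fluo-8 and read kinetically: 10 s baseline, 3 min after compound (agonist portion), then 2 min after EC20 capsaicin (allosteric enhancer portion). Calcium-bound dye fluorescence at 480/520 nm.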
An asterisk follows results filed as active; u = inconclusive; x = no result given; & = joins results of further samples; [ ] = another dose, or the depositor's remark.

No.	smiles	gsp antagonist	Sfp PPTase inh	Menin-MLL FL inh	gsp ag	ClpP mod	D2 potentiator	TRPV1 PAM
1	CC(C)(C)c1cc(CCC(=O)NCC2CCCO2)cc(C(C)(C)C)c1O (stereo not given)	14%	-4%	x	u	-0.3%	0	-23
2	O=C(NCC1CCCCC1)c1cc(S(=O)(=O)N2CCCCC2)ccc1N1CCOCC1	-11%	7%	0.1	9%	-1.1%	-7	-18
3	Cc1cc(NC(=O)Nc2cccc(Cl)c2)no1	x	x	x	-80%[inhibitor]	0.6%	-21	x
4	Cc1cc(C)c2c3c(c(-c4ccccc4)n2n1)c(=O)n(C)c(=O)n3C	11%	x	x	5%[15.4 µM]	x	-2	x
5	Cc1nnc(NC(=O)C2CCN(c3cnccn3)CC2)s1	-3%	3%	1.5	3%	-3.8%	-3	6
6	COc1ccc(C(C)=O)cc1COc1ccccc1[N+](=O)[O-]	4%	5%	0.6	-26%	-1.4%	-11	2
7	C=C(C)CN(CC)C(=O)CSc1nc2ncc(Cl)cc2[nH]1	8%	4%	-0.3	-1%	-23%	-23	-5
8	COc1ccc(Cl)cc1NC(=O)C1CCCN(c2ncnc3c2nc2n3CCCCC2)C1 (stereo not given)	4%	2%	-3.2	-2%	x	-4	-10

Entries from the list above with a halogen, in the order listed:
No.	smiles	gsp antagonist	Sfp PPTase inh	Menin-MLL FL inh	gsp ag	ClpP mod	D2 potentiator	TRPV1 PAM
3	Cc1cc(NC(=O)Nc2cccc(Cl)c2)no1	x	x	x	-80%[inhibitor]	0.6%	-21	x
7	C=C(C)CN(CC)C(=O)CSc1nc2ncc(Cl)cc2[nH]1	8%	4%	-0.3	-1%	-23%	-23	-5
8	COc1ccc(Cl)cc1NC(=O)C1CCCN(c2ncnc3c2nc2n3CCCCC2)C1 (stereo not given)	4%	2%	-3.2	-2%	x	-4	-10

New compounds follow
No.	smiles	gsp antagonist	Sfp PPTase inh	Menin-MLL FL inh	gsp ag	ClpP mod	D2 potentiator	TRPV1 PAM
9	COC(=O)C/C=C/[C@@H](C)[C@@H](/C=N/OC[C@H]1O[C@H](c2ccccc2)C=C[C@@H]1Oc1ccc(OC)cc1)NS(=O)(=O)c1ccc(C)cc1	x	18%	3.6	x	x	x	3
10	CCOc1ccc(CCNC(=O)CSCC(=O)Nc2ccc(OC)cc2)cc1OCC	-11%	x	x	15%	0.4%	1	6
11	Cc1ccc(S(=O)(=O)/N=C(/Nc2ccc(F)cc2F)c2ccccc2)cc1	-6%	8%	x	3%	-2.1%	-7	-9
12	COc1ccc(S[C@@H](CCN2CC[C@H](C)CCC2=O)c2ccccc2)cc1	u	x	x	0%	-1.3%&-0.1%	-6	15
13	Cc1cc(C(C)(C)C)cc(C)c1CCNC(=O)c1c(C)noc1C	-7%	x	x	-55%	1.2%	-21	-11
14	CCOc1ccc(Cl)cc1S(=O)(=O)NCc1ccccn1	-1%	1%	-1.8	6%[15.4 µM]	x	0	u
15	Cc1ccc(CNC(=O)CN(C)S(=O)(=O)c2ccc(F)cc2)cc1	3%	x	x	0%	0.2%	-17	x
16	Oc1c(Cl)cc(Cl)cc1CNn1cnnc1	10%	-3%	-5.7	-10%[15.4 µM]	x	2	7
17	NC(=O)c1ccc(NC(=O)COC(=O)c2ccc3ccccc3n2)cc1	-1%	x	x	-44%[inhibitor]	x	-2	x
18	N#Cc1cc2c(nc1SCc1ccccc1)CCC2	-2%	12%	2.1	u	-6.4%	2	3
19	CC(NNC(=S)N1CCN(c2ccccn2)CC1)c1nccc2ccccc12 (stereo not given)	-15%	x	x	-36%[inhibitor]	-8.3%	-35	x
20	COC(=O)c1cccc(S(=O)(=O)N2CCC(NC(=O)NC34CC5CC(CC(C5)C3)C4)CC2)c1	1%	2%	-4.2	2%	-4.0%	8	6
21	COc1cc(Cl)c(C)cc1NC(=O)c1cccc(OC)c1OC	u	4%	3.5	0%	x	1	2
22	COc1ccc(C(O)(CCN2CCCCC2)C2CCCCC2)cc1 (stereo not given)	-13%	5%	9.3	-5%[15.4 µM]	-0.5%	-14	19
23	CC1(C(=O)Nc2c(F)c(F)c(F)c(F)c2F)CC1(Br)Br (stereo not given)	-14%	13%	1.9	-55%[inhibitor]	2.1%	-2	-10
24	Cc1n[nH]c(=O)c2c(NC(=O)COC(=O)c3cccc(OC(F)F)c3)oc(C)c12	5%	x	x	u	-7.2%	-11	9
25	O=C(CCCNC(=O)c1ccc(Cl)cc1)Nc1ccccc1F	-1%	14%	-0.2	6%	x	-11	-12
26	Cc1c(C(=O)c2cccc([N+](=O)[O-])c2)c2ccccn2c1CCC#N	3%	5%	x	-6%[15.4 µM]	-0.7%	-7	13
27	CCc1cc2c(=O)c(-c3ccc4c(c3)OCCO4)coc2c(CN2CCCCC2C)c1O (stereo not given)	-30%	u	-0.3	14%	3.6%	-19	-4
28	O=C(NCc1ccncc1)c1cccc(S(=O)(=O)Nc2ccc(F)cc2)c1	8%	x	x	19%[15.4 µM]	-1.3%	-6	-16
29	COc1ccc(OC)c(NC(=O)CN(C)CCOc2ccc(Br)cc2)c1	2%	-3%	-13	-27%[15.4 µM]	x	-3	-22
30	Cc1ccc(NC(=O)CSc2nc(=O)n(CCCN(C)C)c3c2CCC3)c(C)c1	7%	x	x	-22%	-8.5%	-3	0
31	COc1ccc(C(CNS(=O)(=O)c2ccc(NC(C)=O)c(OC)c2)N2CCCCC2)cc1 (stereo not given)	9%	x	x	-1%[15.4 µM]	0.7%	-32	x
32	COC(=O)c1ccc(N2CCN(S(=O)(=O)c3ccccc3)CC2)c([N+](=O)[O-])c1	u	6%	-1.6	-20%	0.6%	-12	-7
33	Cc1cc(C)n(-c2nc(SCCN(C)C)c3c4c(sc3n2)CCCC4)n1	8%	-18%	2.0	22%	-15%	-20	-12
34	Cc1nnc(NC(=O)c2ccc(-c3ccc(Cl)cc3)o2)s1	2%	x	x	0%[15.4 µM]	0.4%	-12	2
35	CCOC(=O)/C(C#N)=C/c1cc(C)n(-c2ccc(C)cc2)c1C	6%	-9%	3.3	9%	-10%	-17	-4
36	O=C(NCCNc1cc(Cl)ccc1[N+](=O)[O-])c1ccco1	-19%	6%	1.0	2%[15.4 µM]	-1.3%	-14	7
37	COc1ccc(C(c2nnnn2C2CCCC2)N2CCN(c3ccccc3)CC2)cc1 (stereo not given)	3%	4%	-2.1	-29%	0.6%	-25	2
38	Cn1c(N)c(C(C[N+](=O)[O-])c2ccccc2Cl)c(=O)n(C)c1=O (stereo not given)	5%	x	x	16%[15.4 µM]	0.6%	12	x
39	CC(=O)N1CCOc2ccc(S(=O)(=O)Nc3ncccc3C)cc21	-5%	15%	3.9	u	-0.4%	0	-8
40	Cn1c(SCc2ccccc2C#N)nnc1-c1ccncc1	9%	8%	-0.5	16%	x	0	28
41	O=C(OCCN1C(=O)c2ccccc2C1=O)c1cc(S(=O)(=O)N2CCOCC2)ccc1Cl	1%	1%	2.7	-43%[inhibitor]	-5.6%	-7	-1
42	C/C(=N\NC(=O)c1ccc([N+](=O)[O-])cc1)c1cc2ccccc2oc1=O	-10%	13%	0.3	-3%	-5.3%	-19	-8
43	C=CCn1c2ccccc2c(=O)c2cc(C#CC[C@@H](C)O)ccc21	-7%	x	x	x	3.4%	0	-21
44	CC1CCCCC1NC(=O)CCS(=O)(=O)c1ccc(Cl)cc1 (stereo not given)	1%	x	x	-25%	0.3%	-4	x
45	COc1ccc2c(c1)CCc1c(C(=O)N3CC4(C)CC3CC(C)(C)C4)noc1-2 (stereo not given)	-20%	-24%	0.5	-35%[inhibitor]	-1.6%	-5	7
46	CCOC(=O)N1CCN(S(=O)(=O)c2ccc(Br)s2)CC1	5%	4%	4.6	-4%	0.6%	-3	7
47	CCN(CC)S(=O)(=O)c1cc(C(=O)Nc2cc(S(=O)(=O)N3CCOCC3)ccc2N2CCCC2)ccc1F	6%	x	x	-1%	1.9%	-11	10
48	CC1=C(C(=O)Nc2cccc(C(=O)NCc3ccccc3C)c2)SCCO1	6%	5%	x	4%	0.4%	-10	22
49	CCOC(=O)C1CCN(C(=O)CSc2cc(=O)n(C)c3ccccc23)CC1	-7%	6%	3.9	u	-22%	-4	-9
50	O=C(CCl)Nc1cc(-c2ccccc2)nn1-c1ccccc1	-5%	-10%	2.7	0%	-0.2%	6	1
51	Cc1cc2oc(=O)cc(-c3ccccc3)c2c(C)c1-c1ccc(C#N)cc1	-24%	-2%	-0.1[94.6 µM]	x	-8.0%	-5	x
52	COCCN(C(=O)COC(=O)Cc1cccc2ccccc12)c1c(N)n(Cc2ccccc2)c(=O)[nH]c1=O	-4%	-2%	8.7	-19%	-17%	16	5
53	O=C(COC(=O)CCCN1C(=O)c2cccc3cccc(c23)C1=O)NC1CCS(=O)(=O)C1 (stereo not given)	-5%	x	x	4%	32µM*	-9	5
54	COC(=O)NNC(=O)c1ccc(C)c(Br)c1	-3%	6%	3.5	-3%	-1.4%	-5	-5
55	COC(=O)/C(=C\c1ccc2c(c1)c1ccccc1n2C)NC(=O)c1ccccc1	-23%	17%	0.6	22%[15.4 µM]	-29%	-9	4
56	CCOc1cc(NC(=S)NCC2CCCO2)c(OCC)cc1NC(=O)c1ccc(C)cc1 (stereo not given)	16%	-19%	3.0	-45%[inhibitor]	1.0%	12	-4
57	COc1ccc(CCNC(=O)C(=O)NCC2OCCN2S(=O)(=O)c2ccccc2)cc1 (stereo not given)	4%	20%	8.7	-6%	0.7%	2	2
58	FC(F)(F)Oc1ccc(Nc2nc3ccccc3o2)cc1	-1%	17%	0.1	-8%[15.4 µM]	-0.2%	-4	1
59	CCOC(=O)/C(=N/Nc1ccc(Cl)cc1)Sc1nnnn1-c1ccc(C)cc1	-11%	-11%	2.5	2%	-1.0%	-3	-8
60	CC1(c2nnc(-c3ccc(F)cc3)o2)CC(c2ccc(Cl)cc2)=NO1 (stereo not given)	-2%	3%	1.3	-67%[inhibitor]	-1.9%	0	19
